# Screening results from PubChem.
# TRPML1 blocker: blocks the human TRPML1 channel; Q9GZU1; activity change, negative = inhibition, % (no concentration beside the values); TRPML1-inducible cells, Ca2+ dye fluorescence, FDSS; stronger effect = lower value; inhibition of EC80 agonist-evoked calcium signal; AID 624415; 390,000 tested, 0.02% active; in the data active means activity change below about -50%; inconclusive means about -30% to -50%; inactive means above about -30%;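 note: stimulus is agonist 54-4 at its EC80 concentration; % is set by controls: 0 for no effect and ±100 for the full control effect; compound concentration not given in the record; the text of the record puts the active cut at -80%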
#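 Tet-induced TRPML1-DL cells loaded with Ca8 no-wash calcium dye were read kinetically on FDSS. Compound addition was followed by EC80 agonist 54-4 (4 uM final); inhibition was read over 110 s.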
# CtBP-E1A inh: blocks the CtBP interaction with E1A; activity change, % (concentration not given with the values); AlphaScreen GST-E1A/His-CtBP binding, 1536-well; stronger effect = lower value; control for the full effect not named in the record; AID 651724; 340,000 tested, 0.49% active; in the data active means activity change below about -65%; inconclusive means about -30% to -65%; inactive means above about -30%; note: % is set by controls: 0 for no effect and ±100 for the full control effect
#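 In 5 uL wells, 23 nL compound meets equimolar GST-E1A and His-CtBP (5X stock 125 nM each) for 2 h, 37 °C. Beads (5X, 50 ug/mL) then 1 h, 37 °C, dark.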
# Six1-Eya2 blk: Six1/Eya2 interaction inhibition; 360,000 tested, 0.56% active; AID 651725; AlphaScreen GST-Six1/His-Eya2 binding, biochemical; stronger effect = lower value; control for the full effect not named in the record; activity change, % (test concentration not listed); in the data active = activity change below about -65%; inconclusive = about -30% to -65%; inactive = above about -30%; note: % is set by controls: 0 for no effect and ±100 for the full control effect; compound concentration not given in the record
#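 AlphaScreen with GST-Six1 and His-Eya2 (5X mix: 250 nM and 500 nM), glutathione donor and nickel acceptor beads; buffer 50 mM Tris pH 8.0, 300 mM NaCl, 1 mM TCEP; 1 h at 37 C in the dark.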
# D2 ag: human D2 receptor agonism in beta-arrestin assay | P14416 | activation, % (no concentration beside the values) | DiscoveRx PathHunter D2 beta-arrestin, luminescence, 90 min; 100% = 57 uM dopamine signal | 360,000 tested, 0.084% active; in the data active = activation above about 40%; inconclusive = about 15% to 40%; inactive = below about 15%; note: compound concentration not given in the record; the text of the record calls up to 30% inactive
# Target sequence (P14416 whole entry, looked up): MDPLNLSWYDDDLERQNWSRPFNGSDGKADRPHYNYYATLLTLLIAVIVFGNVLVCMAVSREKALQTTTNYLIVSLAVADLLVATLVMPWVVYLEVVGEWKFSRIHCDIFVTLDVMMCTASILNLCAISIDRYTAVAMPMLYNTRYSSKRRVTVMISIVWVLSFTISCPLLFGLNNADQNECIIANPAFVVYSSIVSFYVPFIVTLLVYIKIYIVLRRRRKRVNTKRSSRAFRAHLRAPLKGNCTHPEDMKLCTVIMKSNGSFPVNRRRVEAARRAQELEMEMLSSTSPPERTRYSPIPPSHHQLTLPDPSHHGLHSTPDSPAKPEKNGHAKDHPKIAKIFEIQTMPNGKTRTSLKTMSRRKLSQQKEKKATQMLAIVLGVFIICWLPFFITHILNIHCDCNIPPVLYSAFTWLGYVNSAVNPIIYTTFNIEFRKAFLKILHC
#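 Agonist mode: compounds alone added to overnight-plated D2 PathHunter cells for 90 min at 37 C, with 57 uM final dopamine (EC100) defining full response. Beta-arrestin recruitment detected by chemiluminescent reagent, read after 1 h at ambient temperature.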
# PINK1 modulator: modulators of PINK1 expression; PINK1 immunofluorescence, high-content cytometry, 24 h; 410,000 tested, 0.2% active; AID 624263; Potency, µM (titrated, usually from 76.6 µM), for the others: at the highest dose activation (PINK1 increase), actives largely listed as activators; active = well fitted activation curve with a large enough effect; inconclusive = small, poorly fitted or top-dose-only effect; inactive = flat fitted curve, though single readings scatter; cell line not stated here;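 note: potency is the fitted concentration of half-maximal effect; % of control where 0% means no effect; nearly all actives have a fitted effect of over 65% in size; a mitochondrial uncoupler was the plate control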
#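 Readout is PINK1 immunofluorescence, quantified alongside mitochondrial, cell and nuclear markers by laser-scanning microplate cytometry. Cells from a stable line were exposed to compound titrations (5 concentrations) for 24 hours, with CCCP controls.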
# TRPML1 ag: agonists of human TRPML1 channel; TRPML1-expressing cells, Ca2+ dye fluorescence, FDSS; host cell line not named in the record; reference of the full effect not given here; activation, % (no concentration beside the values); 410,000 tested, 0.12% active; Q9GZU1; AID 624414; in the data active = activation above about 50%; inconclusive = about 30% to 50%; inactive = below about 30%; note: 0% is about no effect; the text of the record puts the active cut at 80%
#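 TRPML1-DL cells, Tet-induced overnight (~16 h, 37 degrees C), loaded 45-90 min at room temperature with Ca8 no-wash calcium dye plus quencher. FDSS fluorescence: 10 s baseline, compound pin-transfer, 110 s agonist read, then EC80 54-4 (4uM final) and 110 s antagonist read.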
# * hit, by the source's call; u = inconclusive; x = no result given; & = joins results of further samples; [ ] = dose if it differs, or a comment. Hits appear at their usual frequency; about 1% have a hit in one of these screens.
nr | molecule | TRPML1 blocker | CtBP-E1A inh | Six1-Eya2 blk | D2 ag | PINK1 modulator | TRPML1 ag
1 | CCCC(C)CO (stereo unspecified) | -2 | 28 | 24 | -6.3 | -0.4% | -0.6
2 | O=C(Cc1ccc(Cl)cc1)NC(=S)Nc1ccccc1N1CCOCC1 | 0 | -7 | -15 | 1.5 | 21% | 6.1
3 | COCCCNC1=C(Cl)C(=O)c2ccccc2C1=O | 38 | -20 | u | 0.4 | -1.5% | 0.6
4 | O=C(CN(C1CCCCC1)S(=O)(=O)c1ccc(F)cc1)NCC1CCCO1 (stereo unspecified) | -11 | -15 | 4 | 3.4 | -1.1% | 0.3
5 | Cc1ccc(Cl)c2sc(NC(=O)C3CC3)nc12 | 2 | 4 | 2 | -1.7 | -0.3% | 0.4
6 | COC(=O)c1sccc1-c1ccc(/C=N/OC(=O)c2ccccc2)o1 | -3 | 15 | 20 | -3.5 | -39%[inhibitor][38.3 µM] | 0.1
7 | CCCCn1nnnc1SCC(=O)Nc1ccc(F)cc1 | -4 | -2 | 5 | -1.0 | -1.4% | 4.4
8 | CC(=O)c1nn(-c2cccc(Br)c2)cc1C(=O)c1ccc2ccccc2c1 | 3 | 4 | 1 | -4.7 | 6.7% | 0.0
9 | CCOc1ccc(N2CC(NC(=O)c3ccc4ccccc4c3)CC2=O)cc1 (stereo unspecified) | 12 | -12 | -1 | -3.5 | 16% | 3.2
10 | CCOc1cc(C=NN2CCCCCC2)ccc1O | 8 | -3 | -14 | 2.9 | 0.7% | -0.6
11 | Cc1cc(F)ccc1NC(=O)CCc1ccc(S(=O)(=O)N2CCOCC2)cc1 | 5 | -3 | 4 | 0.5 | -0.7% | 0.0
12 | Cc1ccc(C)c(N2CCN(Cc3csc(C)c3)CC2)c1 | 0 | x | x | x | 7.9% | 2.2
13 | Cc1ccc(S(=O)(=O)NC2OC(=O)C(Cl)=C2Cl)cc1 (stereo unspecified) | 1 | -2 | -3 | 1.6 | 0.7% | -0.6
14 | CCCCn1c(SCC(=O)N(CC)C2CCS(=O)(=O)C2)nnc1C(CC)N(C)C (stereo unspecified) | 8 | 2 | 0 | -0.6 | 0.4% | -0.7
15 | CCOC(=O)C1=C(C)NC(C)=C(C(=O)OCC)C1C(=O)OCC(=O)N(CC)C1CCS(=O)(=O)C1 (stereo unspecified) | 4 | -5 | 10 | -2.9 | -0.6% | -0.1
16 | Cn1/c(=N/N=C/c2ccc(N3CCOCC3)cc2)sc2ccccc21 | -7 | -15 | -12 | -1.0 | 6.5% | -0.1
17 | CCCCn1c(SCC(=O)Nc2ccccc2C(F)(F)F)nc2ccsc2c1=O | 19 | 2 | 0 | -0.9 | 8.8%[38.3 µM] | 0.7
18 | CCCn1nc(C(=O)OCC(=O)Nc2cccc(S(N)(=O)=O)c2)c2ccccc2c1=O | 14 | 5 | -2 | 9.5 | 3.2% | 1.5
19 | O=C(COC(=O)c1cccc(C(F)(F)F)c1)NC(=O)NC1CCCC1 | -4 | 3 | 4 | -5.0 | 0.7% | 5.2
20 | CSc1cccc(NC(=S)NC(=O)CCc2ccccc2)c1 | -4 | 9 | -3 | u | 2.5% | 0.4
21 | COCCNC(=O)C(=O)NNC(=O)CCc1ccccc1 | 21 | 13 | -3 | -2.3 | 2.3% | -0.6
22 | CC(C)NC(C(=O)Nc1cc(Cl)cc(Cl)c1)c1ccccc1 (stereo unspecified) | 23 | 8 | 4 | 0.0 | 2.2% | -1.0
23 | Cc1ccc(S(=O)(=O)N2CCN(C(=O)COC(=O)/C=C/c3ccc(Cl)cc3)CC2)c(C)c1 | 21 | -6 | -4 | -3.3 | 4.8% | 2.7
24 | COc1cccc(CN(CC(=O)NC2CCCC2)C(=O)Cn2nnc(-c3cccs3)n2)c1 | -13 | 1 | 7 | -2.9 | 0.8% | 0.2
25 | Cc1[nH]ccc(=O)c1OCc1c(F)cccc1Cl | 4 | 6 | -3 | -4.4 | 1.0% | -0.5
26 | C=CCn1c(COc2ccc(F)cc2)nnc1SC(C)C(=O)NCC1CCCO1 (stereo unspecified) | 24 | 8 | 0 | -4.0 | 2.1% | 0.0
27 | CCCCCOC(=O)Cn1c(N2CCCCCC2)nc2c1c(=O)[nH]c(=O)n2C | -4 | 6 | -5 | -0.5 | 0.6% | -1.1
28 | CN1CCN(C2=C(Cl)C(=O)N(Cc3ccccc3)C2=O)CC1 | -6 | -1 | 0 | -2.6 | -1.3% | 0.2
29 | CCN(CC)c1ccc(/C=N/N2CCN(Cc3ccccc3Cl)CC2)c(O)c1 | 7 | -14 | -14 | -0.9 | 0.5% | -0.2
30 | COc1ccc(-c2csc(NC(=O)CCN3C(=O)C4CC=CCC4C3=O)n2)cc1OC (stereo unspecified) | 10 | -5 | -14 | 4.8 | -1.5% | 3.7
31 | Cc1ccc(-n2ncc3c(N4CCN(c5ccc(F)cc5)CC4)ncnc32)c(C)c1 | -19 | -9 | -13 | 0.2 | u | -0.1
32 | O=C(Nc1cccc(C(=O)O)c1)/C(=C\c1ccc2c(c1)OCO2)NC(=O)c1ccc(Br)cc1 | 3 | -13 | -16 | -6.0 | -0.9% | 0.0
33 | CCc1cccc(NC(=O)Cn2c(=O)c3cccn3c3ccccc32)c1 | -12 | x | 4 | -5.3 | 8.3% | -0.4
34 | CN1/C(=C\C(=O)C[n+]2cccc(C(N)=O)c2)C(C)(C)c2ccccc21 | 4 | -5 | -3 | 1.8 | 1.8% | -0.7
35 | O=C(c1ccc([N+](=O)[O-])o1)N1CCN(c2nc3c(Cl)cccc3s2)CC1 | -5 | -3 | -6 | 10 | 3.9% | -0.4
36 | CCOc1ccc(NC(=O)CN2C(=O)CCSc3ccc(S(=O)(=O)N4CCCC4)cc32)cc1 | -7&17 | 2 | 7 | 2.1 | 15%&-0.4% | -0.9&-0.8
37 | COc1ccc(Cn2c(=S)[nH]c3cc(C(=O)N4CCN(c5ccccc5)CC4)ccc3c2=O)cc1 | 1 | -2 | 7 | -16 | 15% | -1.0
38 | CSc1ccc(CCNC(=O)CN2C(=O)CCSc3ccccc32)cc1 | -9 | 1 | 1 | -2.7 | 2.4% | 1.0
39 | Nc1ccc(C(=O)N/N=C/c2cn(Cc3ccccc3F)c3ccccc23)cc1 | 12 | -10 | -9 | 11 | 1.6% | -0.1
40 | COc1ccc(OC)c(C(=O)CSc2nc3ccccc3n2CC(=O)NC(C)(C)C)c1 | 18 | 0 | 5 | -4.9 | 11% | 1.9
41 | CCCc1cc(=O)[nH]c(SCC(=O)Nc2ccc(C)cc2)n1 | -15 | -5 | u | 3.4 | 12% | 0.4
42 | O=C(CNS(=O)(=O)c1ccc2ccccc2c1)OCC(=O)c1ccc(Br)s1 | -1 | 10 | 0 | -5.9 | 6.8% | 0.0
43 | CCCN(CC(=O)Nc1ccccc1C)C(=O)C1CC(=O)N(c2ccc(C)cc2)C1 (stereo unspecified) | 8 | 1 | -1 | -4.2 | -1.4% | 1.1
44 | COc1cccc2c1C(=O)c1c(O)c3c(c(O)c1C2=O)C[C@@](O)(C(=O)CO)C[C@@H]3O[C@H]1C[C@H](N)[C@@H](O)[C@H](C)O1 | 12 | u | u | -3.8 | -0.9% | 9.5
45 | O=C(CCc1nc2ccccc2s1)c1ccccc1 | 2 | 4 | 21 | -2.1 | -0.2% | 0.3
46 | Cc1nnc(SCCN2C(=O)c3ccccc3C2=O)[nH]c1=O | 10 | -2 | 6 | -1.8 | 1.5% | -0.9
47 | CC1(C)CC(=O)C(CCC(=O)c2ccccc2)C(C)(C)N1 (stereo unspecified) | 10 | 2 | -1 | -2.5 | 2.6%[38.3 µM] | -0.4
48 | COc1ccc(NC(=S)N2CCC(C(O)(c3ccccc3)c3ccccc3)CC2)cc1 | 9 | 16 | 5 | 1.4 | -0.1% | 3.4
49 | CCCN1C(=O)N(c2cccc(C)c2)C(C)(O)CC1(C)C (stereo unspecified) | 29 | 2 | 0 | -1.4 | 0.1% | 1.9
50 | CCc1ccc(NS(=O)(=O)c2ccc(OC)c(C)c2)cc1 | -7 | 5 | 0 | -0.2 | 1.1%[38.3 µM] | 1.9

# Carrying on:
nr | molecule | TRPML1 blocker | CtBP-E1A inh | Six1-Eya2 blk | D2 ag | PINK1 modulator | TRPML1 ag
51 | C=CCn1c(C)c(C(C)=O)c(N2CCOCC2)nc1=S | -4 | -5 | 1 | -4.0 | 0.0% | -0.9
52 | O=C1C=C(c2cccc(CO)c2)C[C@@H](c2ccc(Cl)cc2)C1 | 29 | 0 | 2 | -0.1 | 0.1% | -0.3
53 | COc1ccc(C(=O)N/C(=C/c2cccnc2)C(=O)NCc2ccco2)cc1OC | 19 | -1 | 0 | -3.4 | -0.7% | 0.4
54 | COc1ccc(NC(=S)NNC(=O)c2cccnc2)cc1OC | -9 | 2 | 2 | 3.4 | -0.4% | 0.2
55 | Cc1ccc(-c2nc(NC(=O)CSc3nc(C)nc4sc5c(c34)CCCC5)ns2)cc1 | 7 | x | x | x | -0.8% | -0.3
56 | COc1ccc(/C(C)=N/Nc2nc3ccccc3n3cnnc23)cc1OC | 26 | u | u | 0.1 | 9.4% | -0.5
